Screening results deposited in PubChem BioAssay by National Center for Advancing Translational Sciences (NCATS).
gsp antagonist – gsp mutant antagonism; gsp-mutant cells, cAMP HTRF, 30 min; control for the full effect not named in the record; actives 0.4% (n = 340,000); Potency, µM (series often up to 76.9 µM), without a hit: top-dose activity change, negative = inhibition, actives largely listed as inhibitors; active = falling curve of any shape with a large fitted effect; inconclusive = falling curve, mostly with a smaller effect; inactive = flat or rising curve; cell line not stated here;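 further: intracellular cAMP measured with PDE inhibitor Ro 20-1724 present during compound exposure; potency means the concentration at half of the fitted maximal effect; on the % scale 0 is the no-effect control and ±100 the full control effect; nearly all actives have a fitted effect of over 65% in size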
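Measurement of cellular cAMP by homogeneous time-resolved fluorescence following a 30 min compound exposure at 37C. The PDE inhibitor […] was present throughout; the assay buffer was DPBS with 0.05% BSA and 0.005% Tween 20.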
TRPV1 PAM – potentiators of human vanilloid receptor 1 (TRPV1) | actives 0.02% (n = 320,000) | Q8NER1 | TRPV1-expressing cells, Fluo-8 calcium influx, capsaicin EC20 potentiation; host cell line not named in the record; control for the full effect not named in the record | potentiation, % at 8.33 µM; active means potentiation above 80%; inconclusive means 30% to 80%; inactive means below 30%; further: 0% is about no effect
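TRPV1-expressing cells were cultured overnight at 35.5C and loaded with Fluo-8 calcium dye for 40 to 90 min at room temperature. After a 10 s baseline, compound was added and calcium influx was read kinetically for 3 min (ex 480/em 520 nm).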
Menin-MLL FL inh – menin-MLL binding inhibition, fluorescein peptide; FP activity change, % at 61.4 µM; 290,000 tested, under 10 active; Fluorescence polarization, fluorescein-MLL peptide displacement from menin; inconclusive = falling polarisation curve, or a change in total fluorescence; inactive = total fluorescence flat and polarisation flat or rising; no compound was filed as active; the % refers to the polarisation; negative = inhibition;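 further: % of control where 0% means no effect; inhibitors lower the polarisation; unlabelled MLL peptide was the positive control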
gsp ag – activates gsp, the McCune-Albright syndrome mutation. gsp mutant cells, cAMP HTRF, 30 min; control for the full effect not named in the record. Potency, µM (top dose mostly 76.9 µM), for the others: at the top dose activation (cAMP increase), actives largely listed as activators. AID 624287. actives 0.13% (n = 340,000); active = well fitted activation curve with a large enough effect; inconclusive = small, poorly fitted or top-dose-only effect, or another doubt; inactive = no such curve, though single readings can be large or run the other way; cell line not stated here;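 further: phosphodiesterase inhibitor Ro 20-1724 added with compounds to block cAMP breakdown; potency means the concentration at half of the fitted maximal effect; nearly all actives have a fitted effect of over 60% in size; about a fifth of the inactives were tested at one dose only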
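Cells in DMEM/10% FBS with G418 were pretreated with compounds in DMSO plus […] (300 uM stock) for 30 min at 37C. cAMP was measured by HTRF (cAMP-d2 plus anti-cAMP antibody-K) after 30 min at room temperature.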
Sfp inh – Sfp phosphopantetheinyl transferase inhibition | AID 1490 | Biochemical Sfp PPTase activity, qHTS | Potency, µM, for inactives: max response, negative = inhibition, most hits filed as inhibitors | actives 3.5% (n = 310,000); active means well fitted inhibition curve with a large enough effect; inconclusive means small, poorly fitted or top-dose-only effect, or another doubt; inactive means no such curve, though single readings can be large or run the other way;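 further: the enzyme is Sfp with the accession as filed and its product quenches rhodamine fluorescence; potency means the concentration at half of the fitted maximal effect; 0% = enzyme reaction without inhibitor and -100% = no enzyme wells; top concentration of the series not given in the record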
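Sfp 15 nM + cpd, 15 min RT; start w/ rhodamine-CoA 5 uM, BHQ-2-YbbR 12.5 uM (final); 50 mM Hepes pH 7.6, 10 mM MgCl2, 0.01% NP-40, 0.01% BSA; read 525/598 nm at 0 and 30 min.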
ClpP mod – qHTS Assay for Activators of ClpP; ATP-dependent Clp protease proteolytic subunit (Bacillus subtilis (strain 168)), P80244; actives 1.9% (n = 340,000); Potency, µM (series often up to 57.5 µM), for inactives: at the top dose activity change, negative = active; purified B. subtilis ClpP, FRET peptide cleavage, 20 min; active = well fitted falling curve with a large enough effect; inconclusive = small, poorly fitted or top-dose-only effect; inactive = no such curve, though single readings can be large or run the other way; further: potency means the concentration at half of the fitted maximal effect; the source files actives as falling curves though it sought activators and does not explain the sign; nearly all actives have a fitted effect of over 65% in size; many hits overshoot -100%
Target sequence (P80244 whole entry, looked up): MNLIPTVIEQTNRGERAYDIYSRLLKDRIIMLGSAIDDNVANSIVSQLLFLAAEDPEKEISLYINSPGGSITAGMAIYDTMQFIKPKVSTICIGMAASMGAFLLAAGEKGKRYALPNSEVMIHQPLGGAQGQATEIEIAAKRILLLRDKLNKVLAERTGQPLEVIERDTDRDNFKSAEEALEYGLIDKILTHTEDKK
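ClpP 10 microg/mL final, pH 8 Tris/KCl buffer with BSA, glycerol, Tween-20; compound pinned in; FRET-FV substrate; RT 20 min; Ex320/Em430; ΔFRET vs ADEP 5.8 microM, DMSO, no enzyme.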
D2 potentiator – potentiates the human D2 dopamine receptor allosterically. P14416. AID 624464. DiscoveRx D2 beta-arrestin cells, luminescence, 90 min; 100% = 57 uM dopamine signal. actives 0.23% (n = 360,000). potentiation, % (concentration not given with the values); active = potentiation of 50% or more; inconclusive = 30% to 50%; inactive = 30% or less;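 further: compound concentration not given in the record; tested on top of an EC20 dose of dopamine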
Target sequence (P14416 whole entry, looked up): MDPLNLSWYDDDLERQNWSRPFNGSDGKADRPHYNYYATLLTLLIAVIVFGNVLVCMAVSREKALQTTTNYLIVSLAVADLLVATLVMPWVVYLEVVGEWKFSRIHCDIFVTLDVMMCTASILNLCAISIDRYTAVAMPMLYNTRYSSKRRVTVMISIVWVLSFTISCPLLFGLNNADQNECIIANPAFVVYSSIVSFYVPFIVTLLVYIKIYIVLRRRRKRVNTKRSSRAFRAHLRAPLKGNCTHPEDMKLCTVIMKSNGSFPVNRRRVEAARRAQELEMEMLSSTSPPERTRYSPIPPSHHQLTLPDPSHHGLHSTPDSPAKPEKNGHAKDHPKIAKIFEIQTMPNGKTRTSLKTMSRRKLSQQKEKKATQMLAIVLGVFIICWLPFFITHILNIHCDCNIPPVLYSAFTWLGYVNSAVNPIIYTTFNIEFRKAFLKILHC
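PathHunter beta-arrestin assay in DiscoveRx D2 cells. Compounds were added with an EC20 of dopamine (50 nM final) for 90 min at 37 deg C. Luminescence was read 1 h after detection reagent, with 57 uM dopamine as the EC100 control.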
* = called active by the depositor; ? = inconclusive; . = no result given; [ ] = another dose, or the depositor's remark.

SMILES | gsp antagonist | TRPV1 PAM | Menin-MLL FL inh | gsp ag | Sfp inh | ClpP mod | D2 potentiator
Cc1nc(NC(=O)C2CC3CCCC(C2)C3=O)sc1C (stereo unspecified) | -4% | ? | -1.8 | ? | 1% | -1.4% | 7
S=C(Nc1ccc(CN2CCCCC2)cc1)Nc1cccc(Cl)c1Cl | 6% | 5 | 0.4 | -1% | -8% | 0.9% | -41
CCn1nnc2cc(C(=O)Nc3cc(S(C)(=O)=O)ccc3Cl)ccc21 | -6% | 17 | 0.6 | -13% | 8% | -0.6% | 8
COc1cc(CNc2ncc(-c3ccc(Br)cc3)n2C)cc(OC)c1OC | -9% | -19 | -15 | -45%[inhibitor] | -27% | 1.2% | -4
O=C1C2C3C=CC(CC3)C2C(=O)N1c1ccc(F)cc1 (stereo unspecified) | 9% | ? | 11 | 0%[15.4 µM] | 26% | 1.7% | -3
CCCc1nn2c(=O)cc(O)nc2s1 | 22% | 4 | 0.9 | 8% | 17% | 1.0% | 7
O=C(CCc1nc2ccccc2c(=O)[nH]1)NNC(=O)COc1ccccc1Cl | 2% | 2 | . | 6%[15.4 µM] | . | . | -5
Cc1ccc(C(C)C)c(OCCN2CCc3ccccc3C2)c1 | -1% | -9 | -5.7 | 5%[15.4 µM] | 2% | 1.7% | -27
Cc1ccn2c(Nc3ccccc3C)c(-c3cccnc3)nc2c1 | 1% | 9 | -0.3 | ? | 4% | -11% | -1
CCN(CC(=O)Nc1cc(S(=O)(=O)N2CCOCC2)ccc1C)Cc1ccccc1 | 4% | -2 | . | 8% | . | -2.5% | -12
O=C(CC1C(=O)NCCN1Cc1ccccc1)NCCC1=CCCCC1 (stereo unspecified) | 8% | -34 | . | ? | 5% | -2.3% | -10
Cc1cc(NC(=O)c2ccc(NC(=O)C3CC3)cc2)no1 | 2% | ? | -5.5 | -5%[15.4 µM] | -11% | . | -5
O=C(Nc1sc2c(c1C(=O)NCCO)CCCC2)c1ccco1 | -5% | 3 | 0.3 | 20%[15.4 µM] | 8% | . | 1
COC(=O)c1ccc(OC)c(CN2CCCN(Cc3cc(C)ccc3C)S2(=O)=O)c1 | -20% | -11 | -1.7 | -25% | 9% | . | -8
CC(=O)Nc1nc(C)c(-c2csc(Nc3ccc(S(N)(=O)=O)cc3)n2)s1 | -6% | -5 | 3.9 | -1%[15.4 µM] | 3% | . | 1
O=C(COc1ccccc1[N+](=O)[O-])N/N=C/c1cccc(OC(=O)c2ccc3c(c2)OCO3)c1 | -12% | ? | 1.3 | -2% | ? | -0.9% | -8
CCOc1ccc(-n2c(C)c(C(C)=O)c(C(C)=O)c2C)cc1 | 1% | 7 | 1.4 | -4% | 15% | -0.8% | 5
O=C(NCCN1CCOCC1)c1c(F)c(F)c(F)c(F)c1F | 11% | 11 | 5.1 | 22% | 9% | 0.1% | 7
COCCN(C(=O)CSc1nnc(C)n1-c1ccccc1)c1c(N)n(Cc2ccccc2)c(=O)[nH]c1=O | 4% | 15 | 7.2 | -39%[inhibitor] | 11% | -2.0% | -11
CCOCC(O)CNC(=O)c1ccc(OC2CCN(C(=O)c3cccnc3)CC2)cc1 (stereo unspecified) | 6% | 1 | -0.1 | 11%[15.4 µM] | 15% | . | -3
COc1ccc(OCCC(=O)OCC(=O)NCc2ccc(F)cc2)cc1 | 16% | -18 | -3.5 | -10%[15.4 µM] | 19% | . | -5
Cc1ccc(NC(=O)c2ccc(Cn3cc(Br)cn3)o2)cc1 | ? | 0 | 2.9 | 14% | 4% | -5.7% | -8
CC(=O)Nc1cccc(NC(=O)C2CC3CCC2C3)c1 (stereo unspecified) | -1% | 5 | -2.6 | 20% | ? | -1.8% | -5
C#CCNC(=O)C1=C[C@H](c2ccccc2)[C@@H](CCCO)[C@H](OCC)O1 | -4% | -11 | -3.9 | . | -1% | -0.3% | -24
CC(C)(C)c1ccc(OCC(=O)NNC(=S)NC(=O)c2ccccc2[N+](=O)[O-])c(Br)c1 | -8% | -4 | -3.7 | -56%[inhibitor] | 40µM* | 1.6% | -17
CC(=O)c1ccc(OCCCC(=O)N2CCN(S(=O)(=O)c3ccc(C)cc3C)CC2)cc1 | -8% | -12 | . | -5%[15.4 µM] | . | -2.9% | 2
CCCC(=O)Nc1ccccc1NC(=O)CCC | 8% | -17 | 2.5 | -18% | 0% | -1.0% | -11
O=C(COc1ccc(Cl)cc1Cl)N/N=C1\CCCc2ccccc21 | -11% | -11 | -0.6 | -5% | 1% | -2.5% | -27
O=C1c2ccccc2C2(c3ccc(F)cc3)NCCN12 (stereo unspecified) | 2% | -26 | -0.5 | -42%[inhibitor] | 2% | . | 11
O=C(O)c1ccc(-c2ccc(Cl)cc2Cl)o1 | -31% | 19 | 5.0 | 16% | 14% | -6.1% | -11
COc1ccc(/C=C2\SC(=O)N(CCC(=O)NC3CCS(=O)(=O)C3)C2=O)cc1 (stereo unspecified) | -11% | 6 | . | -4% | 10% | 0.2% | -6
Cc1ccc(CN2CC(C(=O)Nc3ccc(C)c(S(=O)(=O)N4CCCCC4)c3)CC2=O)cc1 (stereo unspecified) | -17% | . | . | -28% | . | -2.6% | -4
Cc1nc2sc(C(c3ccccc3)N3CCN(C(=O)c4ccco4)CC3)c(O)n2n1 (stereo unspecified) | 3% | ? | -0.7 | -7% | 3% | -0.3% | -12
O=C(COC(=O)CNC(=O)c1cccc([N+](=O)[O-])c1)Nc1cccc(S(=O)(=O)N2CCCCC2)c1 | -26% | -4 | 6.1 | -13% | 10% | -2.7% | 13
CCN(CC)S(=O)(=O)c1ccc(OC)c(NC(=O)CSc2cc(C)ccc2C)c1 | -14% | 10 | 21 | -35%[inhibitor] | 5% | -0.6% | ?
CC1CCN(C(=O)C2CCN(S(=O)(=O)c3cccc4cccnc34)CC2)CC1 | -2% | -1 | . | 6% | 17% | -2.7% | -9
COC(=O)c1ccc(/C=C2\CCn3c2nc2cc(C(=O)O)ccc2c3=O)cc1 | -10% | -14 | 3.3 | -21% | 24% | . | -6
CN(C)S(=O)(=O)N(CC(=O)N1CCC(Cc2ccccc2)CC1)c1ccccc1 | -7% | 0 | -0.4 | 6% | 6% | . | 5
COc1ccccc1C(=O)Nc1cc2cc(Cl)ccc2oc1=O | 7% | -16 | 2.8 | -3% | -12% | ? | 0
CC1(C)CC(=O)/C(=C(/O)CCCN2C(=O)c3ccccc3C2=O)C(=NC(C)(C)C)C1 | -3% | -5 | 3.2 | -9%[15.4 µM] | 12% | -0.3% | -5

A different layout for two compounds above.
compound,gsp antagonist,TRPV1 PAM,Menin-MLL FL inh,gsp ag,Sfp inh,ClpP mod,D2 potentiator
COC(=O)c1ccc(/C=C2\CCn3c2nc2cc(C(=O)O)ccc2c3=O)cc1,-10%,-14,3.3,-21%,24%,.,-6
CN(C)S(=O)(=O)N(CC(=O)N1CCC(Cc2ccccc2)CC1)c1ccccc1,-7%,0,-0.4,6%,6%,.,5

Other results follow:
SMILES | gsp antagonist | TRPV1 PAM | Menin-MLL FL inh | gsp ag | Sfp inh | ClpP mod | D2 potentiator
O=C(Cc1c(Cl)cccc1Cl)NCCc1ccc(Cl)cc1 | 13% | 5 | 4.2 | -2%[15.4 µM] | -7% | -1.1% | -5
CCOc1ccc(Br)cc1S(=O)(=O)N1CCCC1 | -14% | 0 | 3.3 | -21% | 8% | 2.2% | -3
CCCN1CN(CCc2ccccc2)CNC1=S | 8% | -7 | -2.0 | -1%[15.4 µM] | -1% | -0.9% | -2
Cc1ccc(S(=O)(=O)N(CC(=O)N(C)C)c2cccc([N+](=O)[O-])c2)cc1 | 10% | 2 | 4.6 | 7%[15.4 µM] | 13% | -11% | -8
COC(=O)c1ccc(CSc2nc3ccccc3c(=O)n2CC(C)C)o1 | -3%[15.4 µM] | -21 | -0.2 | 6% | -19% | -14% | -11
COc1cc(OC)cc(C(=O)OCC(=O)NCCCc2ccccc2)c1 | 10% | -5 | 0.3 | ? | 0% | -14% | -13
CCC(=O)N(C)C[C@H]1Oc2cc(Br)ccc2S(=O)(=O)N([C@@H](C)CO)C[C@H]1C | . | . | . | -11% | . | 0.1% | 3
CCOc1ccccc1NC(=O)CSc1nnc2ccc(-c3ccccn3)nn12 | -2% | ? | . | -6% | . | -1.0% | -5
NC(=O)C1(Nc2ccc(Cl)cc2)CCCC1 | 8% | . | . | -42%[inhibitor] | . | . | -5
CC(NC(=O)c1ccccc1NC(=O)CN1CCN(c2ccccc2O)CC1)c1ccccc1 (stereo unspecified) | ? | -12 | . | -7% | . | -1.8% | -17
COc1ccccc1C(CC(=O)Nc1ccccc1C)c1ccc(OC(C)C)cc1 (stereo unspecified) | -5% | 10 | 1.7 | -13% | 3% | -0.3% | -8
O=C(OCC#CCSc1nnc(-c2ccncc2)o1)c1cccs1 | -10% | -3 | -8.5 | ? | 16% | 0.0% | -9
N#CC1(NC(=O)CN2C(=O)NC(c3ccccc3)(c3ccccc3)C2=O)CCCC1 | 1% | 15 | . | -2% | . | 1.0% | 0
COc1cc(C(=O)OCC(=O)Nc2nnc(-c3ccccc3)o2)cc(OC)c1OC | -12% | -2 | . | 10% | . | -7.1% | -10
CCn1c(CO)nc2c1c(=O)[nH]c(=O)n2Cc1ccccc1 | 1% | -11 | 4.4 | 19% | 7% | . | -28
CC(=O)Nc1ccc(-c2csc(NC(=O)Cc3cccc(F)c3)n2)cc1 | -7% | 11 | 1.1 | -25%[15.4 µM] | 11% | . | -1
CCCC(=O)Nc1nnc(S(=O)(=O)N(CC(C)C)c2ccccc2)s1 | 9% | 1 | 1.6 | -1% | 2% | -1.4% | -1
CS(=O)(=O)N1CCC(C(=O)Nc2cccc(F)c2)CC1 | 0% | -2 | 0.2 | -16% | 9% | -1.0% | -3
COc1ccc(NC(=O)CN(C)C(=O)c2c(C)nn(Cc3ccc(C)cc3)c2Cl)cc1 | -4% | ? | . | 6% | . | 0.3% | 2
Brc1ccc(COc2ncnc3ccccc23)cc1 | 7% | 12 | -7.1 | 0%[15.4 µM] | 9% | . | -6
COc1ccc(-c2cc(C(=O)Nc3ccc(S(N)(=O)=O)cc3)c3ccccc3n2)cc1OC | 6% | 14 | 0.4 | -1% | -3% | 4.1% | -14
